Env fusion inh – HIV envelope-mediated fusion inhibition; inhibition, % at 12.3 µM; HeLa-JRFL Env/CEM21 cell fusion, luciferase; 360,000 compounds, 1.1% hits;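 active means mean replicate inhibition score of at least 50 and every replicate individually at or above 50; inconclusive means only one of the two criteria met; inactive means mean below 50 and not all replicates reaching 50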;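 further: 0% = plate neutral controls and 100% = maraviroc near 300 nM; one replicate is shown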
Rce1 inhib – inhibitors of yeast Ras-converting enzyme; Q03530; yeast membranes, quenched prenylated peptide cleavage fluorescence; calls only; 290,000 compounds, 0.27% hits; AID 2563;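 active means fall in fluorescence gain of 50% or more versus controls, with final raw signal at or below 3038400; inconclusive means same 50% fall but final raw signal above 3038400; inactive means fall in fluorescence gain under 50%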;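 further: plate controls were neutral control wells for no effect and wells lacking membranes for full effect; tested at 10 µM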
Target sequence (Q03530 whole entry, looked up): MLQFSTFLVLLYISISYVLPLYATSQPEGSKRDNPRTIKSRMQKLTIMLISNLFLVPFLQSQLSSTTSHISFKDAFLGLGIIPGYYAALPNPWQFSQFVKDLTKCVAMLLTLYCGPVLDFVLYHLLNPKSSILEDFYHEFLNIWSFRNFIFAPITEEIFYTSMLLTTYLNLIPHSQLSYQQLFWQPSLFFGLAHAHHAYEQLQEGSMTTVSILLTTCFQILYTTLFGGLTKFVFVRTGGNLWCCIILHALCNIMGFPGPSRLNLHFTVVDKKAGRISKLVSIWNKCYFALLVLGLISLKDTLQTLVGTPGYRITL
MT1-MMP act inh – MT1-MMP (human) activation inhibition; 360,000 compounds, 0.061% hits; HT1080 RFP-PRO-GFP cells, GFP/RFP ratio fluorescence, overnight; percent of plate control window, DMSO zero; GFP/RFP ratio change, % at 20 µM;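 active means GFP/RFP ratio change of at least 30% with cell ATP level not reduced by more than half and red fluorescence within 50% of control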; further: strong numbers were not always called active
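Assay system: RFP-PRO-GFP reporter HT1080 cells; read-out basis: GFP/RFP fluorescence ratio; benchmarks: DMSO wells and RFP-L50D-GFP cells; doses: 20 µM single dose, 1% DMSO; schedule: overnight cell settling, then overnight compound exposure, 37 °C, 5% CO2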
CSC inhib – blocks cancer stem cells. AID 2717. 300,000 compounds, 1.1% hits. cancer stem cell-like cells viability, luminescence. inhibition, % at 7.5 µM;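 active means mean at 75% or more and at least half the replicates too; inconclusive means mean and replicates disagree; tested in HMLE shEcad cells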;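 further: 0% = median of negative and 100% = median of positive control wells; the first replicate is given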
MT1-MMP act inh RFP – second read-out of MT1-MMP act inh, no call of its own (marks repeat the call); RFP signal change, %; measured here: RFP expression control read;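 0 = vehicle wells; hits needed this value within 50% of zero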
* = called active by the depositor; i = inactive; ? = inconclusive; / = not tested or not shown; [ ] = another dose, or the depositor's remark. These rows are one share of the data, so the mix of outcomes need not match the whole.

Under each structure – Env fusion inh	Rce1 inhib	MT1-MMP act inh	MT1-MMP act inh RFP	CSC inhib
> C[C@H]1CN([C@@H](C)CO)C(=O)c2cc(C#CCc3ccccc3)cnc2O[C@H]1CN(C)CC1CC1
  10[16.7 µM]	/	/	/	/
> O=C(C[C@@H]1C[C@@H]2c3cc(NC(=O)C4CCC4)ccc3O[C@@H]2[C@@H](CO)O1)NCc1cccc(F)c1
  5[16.7 µM]	/	/	/	/
> CO[C@H]1CN(C)C(=O)c2cc(NC(=O)NC3CCCCC3)ccc2OC[C@@H](C)N(CCc2ccccc2)C[C@@H]1C
  14[16.7 µM]	/	/	/	/
> Cc1cc(C)n(CCNC(=O)[C@@H](Cc2ccccc2)NC(=O)[C@H]2O[C@@H](n3ccc(=O)[nH]c3=O)[C@H](O)[C@@H]2O)n1
  14	/	/	/	/
> O=C(O)C1CCC2CCCC21 (configuration not stated)
  /	/	7	6	/
> Cn1c(SCC(=O)Nc2ccc(N3CCOCC3)cc2)nnc1C1CC1
  /	/	0	4	/
> O=S1(=O)N[C@@H](Cc2ccccc2)COc2cccc(N3CCC[C@@H]3CO)c21
  /	/	-1	3	/
> CCCCC[C@@H](C)N1C[C@@H](COCc2ccccc2)Oc2cc(N3CC[C@@H](O)C3)ccc2S1(=O)=O
  /	/	3	-9	/
> Fc1cc(F)c(F)c(SCn2cc(Br)cn2)c1F
  /	/	0	4	/
> Nc1cc2c(cc1Cl)N(Cc1ccccc1)C(=O)CO2
  /	/	1	1	/
> Cc1[nH]c(=O)nc(NN=Cc2ccc(Cl)cc2)c1C(=O)Nc1ccc(Cl)cc1
  /	/	7	-3	/
> CCCCC[C@@H](C)N1C[C@H](COCc2ccccc2)Oc2cc(N3CCC[C@@H]3CO)ccc2S1(=O)=O
  /	/	-9	-16	/
> Cc1ccc(SCC(=O)NC2CCS(=O)(=O)C2)cc1C (configuration not stated)
  /	/	-3	2	/
> COc1cc2c(cc1N)-c1ccc(N)cc1C2
  /	/	1	2	/
> COc1ccc(-c2ccc3[nH]c4c(c3c2)CCN2C[C@@H]([C@H](C)O)[C@@H](N(C)C(=O)Nc3cc(Cl)cc(Cl)c3)C[C@@H]42)cc1
  /	/	-15	-3	/
> O=c1[nH]c(=S)[nH]c2c1[C@H](C1CC1)O[C@H](CCc1ccccc1)C2
  /	/	1	0	/
> COC(=O)c1cc(=O)nc(NN=C2CCCCC2)s1
  /	/	6	5	/
> COc1ccccc1N=NNc1ccc(S(=O)(=O)NC(C)=O)cc1
  /	/	6	8	/
> O=C(CN1CCN(S(=O)(=O)c2ccc(F)cc2)CC1)Nc1ccnn1C1CCCC1
  /	/	-1	-9	/
> C[C@@H](c1ccccc1)N1C[C@H](COCc2ccccc2)Oc2cc(N3CC[C@H](N(C)C)C3)ccc2S1(=O)=O
  /	/	4	0	/

2 compounds picked at random from the list so far:
Under each structure – Env fusion inh	Rce1 inhib	MT1-MMP act inh	MT1-MMP act inh RFP	CSC inhib
> CCCCC[C@@H](C)N1C[C@H](COCc2ccccc2)Oc2cc(N3CCC[C@@H]3CO)ccc2S1(=O)=O
  /	/	-9	-16	/
> O=C(CN1CCN(S(=O)(=O)c2ccc(F)cc2)CC1)Nc1ccnn1C1CCCC1
  /	/	-1	-9	/

Further entries
Under each structure – Env fusion inh	Rce1 inhib	MT1-MMP act inh	MT1-MMP act inh RFP	CSC inhib
> CCCCC[C@H](C)N1C[C@@H](COCc2ccccc2)Oc2cc(N3CC[C@@H](N(C)C)C3)ccc2S1(=O)=O
  /	/	5	3	/
> O=S(Cc1ccc(Cl)cc1)c1ccccc1 (configuration not stated)
  /	/	1	3	/
> CCc1ccccc1N1CC(C(=O)Nc2cc(S(=O)(=O)N3CCCC3)ccc2Cl)CC1=O (configuration not stated)
  /	/	2	-4	/
> S=c1nc(-c2ccccn2)c(-c2ccccn2)n[nH]1
  /	/	5	8	/
> CN1CCN(S(=O)(=O)c2ccc(Cl)c(C(F)(F)F)c2)CC1
  /	/	-2	-1	/
> Nc1nc2ccccc2cc1C(=O)NCc1ccc(Cl)cc1Cl
  /	/	1	-30	/
> COC(=O)c1csc(-c2ccc(CO)o2)n1
  /	/	3	2	/
> CCOc1ccccc1N1CC(C(=O)NNC(=O)c2cc(OC)c(OC)c(OC)c2)CC1=O (configuration not stated)
  /	/	1	5	/
> O=C(C(=NNc1ccccc1)C(=S)Nc1ccccc1)c1ccccc1
  /	/	0	-3	/
> Cc1cc(C)c(CNC(=O)c2cc(C3CC3)nc3c2cnn3C(C)C)c(=O)[nH]1
  /	/	2	-5	/
> O=C(OCc1ccccc1)c1c(-c2ccccc2)oc2c1C(OCCO)CCC2 (configuration not stated)
  /	/	5	-2	/
> Nc1[nH]c(=O)[nH]c(=O)c1N=Cc1ccccc1
  /	/	-11	1	/
> COc1ccc(C(=O)CSC(=S)N2CCCCC2)cc1
  /	/	0	-1	/
> CCCCC[C@H](C)N1C[C@H](COCc2ccccc2)Oc2cc(N3CCC[C@H]3COC)ccc2S1(=O)=O
  /	/	-14	-17	/
> O=C(c1cc(-c2ccco2)nc2ccccc12)N1CCCC(C(F)(F)F)C1 (configuration not stated)
  /	/	-7	1	/
> CCc1ccccc1NC(=O)CN(C)C(=O)Cn1cnc2ccc(Cl)cc2c1=O
  /	/	-4	-4	/
> O=C1C(Br)=C(c2ccccc2)C(c2ccccc2)=C1c1ccccc1
  /	/	-3	-3	/
> C[C@@H](c1ccccc1)N1C[C@H](COCc2ccccc2)Oc2cc(N3CCC[C@H]3CO)ccc2S1(=O)=O
  /	/	0	-6	/
> CCN(CC)c1ccc(NC(=O)COC(=O)C2CCN(c3ccc(C(F)(F)F)cn3)CC2)cc1
  /	/	2	5	/
> CCCCCC(=O)N1C[C@@H](O)[C@H](n2cc(-c3ccc(F)cc3)nn2)C[C@@H]1c1ccc(Cl)cc1
  /	/	-4	-22	/

(list continues)
Under each structure – Env fusion inh	Rce1 inhib	MT1-MMP act inh	MT1-MMP act inh RFP	CSC inhib
> CCCCC[C@H](C)N1C[C@@H](COCc2ccccc2)Oc2cc(N3CCC[C@@H]3CO)ccc2S1(=O)=O
  /	/	3	5	/
> CC(=O)C1CCC2C3CC(O)C4=CC(=O)CCC4(C)C3C(=O)CC12C (configuration not stated)
  /	/	16	4	/
> Cc1nc(-c2cccc(NC(=O)c3ccc(-n4nccc4C)cc3)c2)cs1
  /	/	0	-11	/
> CN(C)S(=O)(=O)c1ccc(SCC(=O)N2CC(=O)Nc3ccccc32)nc1
  /	/	0	2	/
> Cc1c2cc[n+](CCN3CCCCC3)cc2c(C)c2c1[nH]c1ccc(O)cc12
  /	/	4	-3	/
> CCCCN(C(=O)c1nn(C)c(=O)c2ccccc12)c1c(N)n(CC(C)C)c(=O)[nH]c1=O
  /	/	2	-6	/
> CCCCC[C@H](C)N1C[C@H](COCc2ccccc2)Oc2cc(N3CC[C@@H](O)C3)ccc2S1(=O)=O
  /	/	3	-2	/
> O=C(/C=C/c1ccc([N+](=O)[O-])cc1)N1CCN(S(=O)(=O)c2ccccc2)CC1
  /	/	6	-9	/
> COc1ccc(N=C(C)C2C(=O)c3ccccc3C2=O)cc1
  /	/	-2	-5	/
> CCOc1ccccc1NC(=O)COC(=O)c1cc(C)oc1C
  /	/	2	2	/
> COC(=O)c1cc2c(n1S(=O)(=O)c1ccc(C)cc1)C(=O)C(=O)c1[nH]cc(C(=O)OCc3ccccc3)c1-2
  /	/	20	-12	/
> COc1ccc(NC(=O)CSc2ccc([N+](=O)[O-])cc2)cc1S(=O)(=O)N1CCOCC1
  /	/	1	-7	/
> Nc1ccc(S(=O)(=O)Nc2cnc3c(Cl)cccc3n2)cc1
  /	/	9	3	/
> CC1CCC(C(C)C)C(NC(=O)c2ccncc2)C1 (configuration not stated)
  /	/	2	4	/
> Cc1[nH]nc(C(=O)NN=Cc2ccccc2Cl)c1N=NN(C)C
  /	/	0	-6	/
> CCOC(=O)c1c(-c2ccc(N(C)C)cc2)oc2c1C(OC)CC2 (configuration not stated)
  /	/	-2	0	/
> Cc1ccc(C(=O)Cc2ccccc2)cc1
  /	/	2	2	/
> COc1cccc(CNC(=O)[C@@H]2CCCN2C(=O)[C@H]2CCCCN2C(=O)c2cccc3ccccc23)c1
  /	/	0	3	/
> CCOC(=O)NC1=NCC(C)(C)S1
  /	/	-3	3	/
> Clc1ccc(CNc2ncnc3[nH]ncc23)c(Cl)c1
  /	/	2	-10	/

Sorted by number of heavy atoms (lowest first): some entries from above
Under each structure – Env fusion inh	Rce1 inhib	MT1-MMP act inh	MT1-MMP act inh RFP	CSC inhib
> Nc1ccc(S(=O)(=O)Nc2cnc3c(Cl)cccc3n2)cc1
  /	/	9	3	/
> CCOC(=O)c1c(-c2ccc(N(C)C)cc2)oc2c1C(OC)CC2 (configuration not stated)
  /	/	-2	0	/
> CC(=O)C1CCC2C3CC(O)C4=CC(=O)CCC4(C)C3C(=O)CC12C (configuration not stated)
  /	/	16	4	/

New compounds follow:
SMILES	Env fusion inh	Rce1 inhib	MT1-MMP act inh	MT1-MMP act inh RFP	CSC inhib
Cc1nc2ccccc2c2c(N)cccc12	/	/	2	3	/
COc1ccc(COCC(O)CN2CCN(S(=O)(=O)c3ccc(C(C)C)cc3)CC2)cc1 (configuration not stated)	/	/	-8	-12	/
O=C(O)CN1CCNCCN(CC(=O)O)CCNCC1	/	/	1	1	/
NC(=S)NN=C1CCCCCCCC1	/	/	2	-3	/
CNC(=O)C[C@@H]1C(=O)N(c2ccc(Br)cc2)CC1(C)C	/	/	-2	1	/
CC(NC(=O)c1cccc2c1Oc1ccccc1S2)C(=O)O (configuration not stated)	/	/	3	7	/
O=C(c1cnn(C(=O)c2ccccc2F)c1)c1ccccc1O	/	/	-4	-3	/
CCCCC[C@@H](C)N1C[C@H](COCc2ccccc2)Oc2cc(N3CC[C@@H](N(C)C)C3)ccc2S1(=O)=O	/	/	-1	-2	/
Cc1ccc(OCCNc2ccc(S(=O)(=O)N3CCCC3)cn2)cc1	/	/	1	5	/
C[C@H](c1ccccc1)N1C[C@@H](COCc2ccccc2)Oc2cc(N3CCC[C@H]3CO)ccc2S1(=O)=O	/	/	2	-3	/
COc1ccc(-c2nnc(SCC(=O)c3ccc4c(c3)OCCO4)o2)cc1	23	i	/	/	/
CCOC(=O)C1=C(C)N(CCCC(=O)O)C(=O)NC1c1ccc(C(F)(F)F)cc1 (configuration not stated)	16	i	/	/	/
COc1cc2nc(-c3cccs3)oc(=O)c2cc1OC	/	i	10	5	/
COc1ccc(NS(=O)(=O)c2cc3c4c(c2)CCN4C(=O)CC3)c(OC)c1	/	i	-1	0	/
O=C1CCc2cc(NS(=O)(=O)c3ccc([N+](=O)[O-])cc3)cc3c2N1CC3	/	i	-2	1	/
O=C(CNC(=O)c1ccccc1F)OCCOc1cccc(Cl)c1	/	i	3	2	/
CCOc1ccc(NC(=O)CN(C)C(=O)CN2C(=O)NC3(CCCC3)C2=O)cc1OCC	/	i	1	2	/
Cc1sc2ncnc(SC(C)C#N)c2c1C (configuration not stated)	/	i	3	-3	/
Cc1ccc(-c2nnc(NC(=O)CCS(=O)(=O)c3ccccc3)o2)c(C)c1	/	i	5	-1	/
O=C1NC2(CCCC2)C(=O)N1CC(=O)N(Cc1ccccc1)c1ccccc1	/	i	3	5	/
CC(=O)NCCC(=O)Nc1cc(S(=O)(=O)N2CCOCC2)ccc1Oc1ccc(F)cc1	/	i	3	2	/
Cc1nc2c(C)cccn2c(=O)c1NC(=O)c1ccc(Br)o1	/	i	-8	0	/
Cc1csc(=O)n1CC(=O)OC(C)C(=O)Nc1ccc(F)c(F)c1F (configuration not stated)	/	i	0	4	/
CCN(Cc1ccccc1)S(=O)(=O)c1cc2c3c(c1)CCN3C(=O)CC2	/	i	-3	-3	/
CCCN(C(=O)COC(=O)c1[nH]c(C)c(C(=O)OC)c1C)c1c(N)n(Cc2ccccc2)c(=O)[nH]c1=O	/	i	0	1	/
COCCN(C(=O)COC(=O)c1cc2ccccc2cc1OC)c1c(N)n(Cc2ccccc2)c(=O)[nH]c1=O	/	i	-1	5	/
Cc1ccc(C(=O)OCc2nc3ccccc3s2)o1	/	i	-3	3	/
Cc1ccnc(NC(=O)c2cc(-c3ccc(Cl)s3)nc3ccccc23)c1	/	i	-6	-4	/
Cc1ccc2c(=O)n3c(nc2c1)C(Cc1ccccc1)NC(=O)c1ccc(Cl)cc1-3 (configuration not stated)	7	/	/	/	-20
CC(C)CC1NC(=O)c2ccccc2-n2c1nc1ccc(F)cc1c2=O (configuration not stated)	?	/	/	/	-11
